# Vaccinia mCherry: qHTS for Stage-Specific Inhibitors of Vaccinia Orthopoxvirus: mCherry Reporter Primary qHTS. Vaccinia virus mCherry reporter infection, fluorescence; about a quarter of the inactives have no number. Potency, µM (highest dose often 36.5 µM), without a hit: at the top dose activity change, negative = inhibition, most hits filed as inhibitors. hit rate 0.63% among 310,000. AID 720579, 2013; active = well fitted inhibition curve with a large enough effect; inconclusive = small, poorly fitted or top-dose-only effect; inactive = no such curve, though single readings can be large or run the other way; tested in A549 cells; note: nearly all actives have a fitted effect of over 35% in size; inactives centre near -10
# Vaccinia Venus: qHTS for Stage-Specific Inhibitors of Vaccinia Orthopoxvirus: Venus Reporter Primary qHTS | Vaccinia virus Venus reporter expression, fluorescence | Potency, µM (highest dose often 36.5 µM), for inactives: at the top dose activity change, negative = inhibition, hits mostly inhibitors | hit rate 0.46% among 330,000; active means well fitted inhibition curve with a large enough effect; inconclusive means small, poorly fitted or top-dose-only effect; inactive means no such curve, though single readings can be large or run the other way; tested in A549 cells; note: nearly all actives have a fitted effect of over 30% in size; inactives centre near -10
# Starred values were filed as active, the others as inactive; i = inactive; ? = inconclusive; nt = not tested or not shown; [ ] = remark or other dose. % is set by controls: 0 for no effect and ±100 for the full control effect; potency is the fitted concentration of half-maximal effect. The order is random; any-hit rate near 0.86%.
SMILES,Vaccinia mCherry,Vaccinia Venus
O=C(CCSc1ccccc1)Nc1ccc(OCc2ccccc2)cc1,nt,-18%
O=c1cc(CSc2nc(NCc3ccccc3)c3ccccc3n2)nc2ccc(Cl)cn12,i,-7%
Cc1ccc2c(c1)NCC(C(=O)NC1CCCCC1)O2 (stereo not drawn),i,-15%
CCCCCCCN=CC1=C(O)CC(c2ccccc2)CC1=O (stereo not drawn),0%,0%
CC(=O)N1CSCC1C(=O)O (stereo not drawn),nt,1%
COc1ccc(CCNC(=O)c2cc([N+](=O)[O-])cc([N+](=O)[O-])c2)cc1OC,?,-16%
CC1(C(=O)Nc2cccc(S(=O)(=O)N3CCOCC3)c2)Cc2ccccc2C(=O)O1 (stereo not drawn),0%,-20%
Cn1cc(-c2csc(C(C)(O)c3cccnc3)n2)cn1 (stereo not drawn),12%,-2%
Cc1ccc(-n2nc3c(Cl)nnc(C)c3c2C)cc1,-1%,-19%
O=C(NCc1ccccc1)c1cc(C2CCCCN2C(=O)CCc2ccccc2)on1 (stereo not drawn),29%,-8%
COc1cc(OCc2ccc(C)cc2)ccc1CNC[C@H]1O[C@@H](n2cnc(C(N)=O)n2)[C@H](O)[C@@H]1O,-4%,1%
CC(=O)c1cccc(NC(=S)NCc2ccccc2)c1,i,-5%
OC(COc1ccccc1)CN1CCN(c2ccccc2)CC1 (stereo not drawn),i,-20%
CCS(=O)(=O)NCc1csc(-c2ccccc2)n1,i,-7%
CC(C)(C)Nc1nc2ccc([N+](=O)[O-])cc2o1,i,-17%
CC1CN(C/C(=N\O)C23CC4CC(CC(C4)C2)C3)CC(C)O1 (stereo not drawn),-6%,-13%
CC#CCN1c2ccccc2[C@]23C[C@@H](C(=O)OC)N(C(=O)OCC)C2=NC(C(=O)OC)=C(C(=O)OC)[C@H]13,i,-17%
COc1ccc(N2CCN(C(=O)c3ccc(Cl)c(S(=O)(=O)N4CCCC4)c3)CC2)cc1,-10%,-20%
CN1N=C(N)c2cn(C3OC(COP(=O)(O)O)C(O)C3O)c3ncnc1c23 (stereo not drawn),?,-8%
CC(=O)c1cccc(S(=O)(=O)NCC(C)(C)N2CCOCC2)c1,-21%,-3%
O=C(O)CCS(=O)(=O)c1ccc(-c2ccccc2)cc1,i,?
COc1ccc(Cl)cc1Nc1nc(-c2sc(NC(=O)CC(C)C)nc2C)cs1,?,?
COc1ccc(N2C(=O)c3ccc(C(=O)Nc4ccc(NC(C)=O)cc4)cc3C2=O)cc1,i,-16%
CC(C)(CCl)C(=O)Nc1ccc(OC(F)(F)F)cc1,i,-14%
COCCN1C(=O)CCC1(C)C(=O)Nc1c(C)cccc1C (stereo not drawn),15%,-7%
CCCc1cc2c(cc1NC(=O)c1ccc(Br)cc1)OCO2,nt,-14%
Cc1nonc1OC(C)CNc1ccc([N+](=O)[O-])cc1 (stereo not drawn),-22%,-9%
COc1ccc(N2CC(C(=O)Nc3cccnc3)CC2=O)cc1 (stereo not drawn),i,-4%
C=CCn1c(SCC(=O)N(C)CC(=O)Nc2ccc(C)cc2)nnc1-c1ccncc1,-16%,-3%
CSCCC(NC(=O)c1ccc(Cl)cc1)C(=O)OCC(=O)NCc1ccco1 (stereo not drawn),-16%,-1%
CCOc1ccc(N(CC(=O)Nc2ccc(OC)cc2)S(=O)(=O)c2ccc(Cl)cc2)cc1,-12%,4%
O=C(Nc1ccccc1)C1CCCN(C(=O)c2ccc(Cl)cc2)C1 (stereo not drawn),-14%,-21%
S=C(Nc1ccccc1)N1CCCCCC1,-11%,-4%
COC(=O)c1ccc(C)c(NC(=O)c2c(-c3ccccc3)noc2C)c1,-2%,-17%
C/C(C=O)=C/c1ccccc1,i,-12%
CCN(CC(=O)NCc1cccs1)C(=O)c1cccc(S(=O)(=O)Nc2ccccc2Cl)c1,i,-7%
COc1ccc(NC(=O)c2cc(C3CC3)on2)c(OC)c1,i,-21%
c1coc(CNc2nc3sc4c(c3c3ncnn23)CCCC4)c1,nt,-12%
Cc1ccc(C)c(C(=O)CSc2nc3ccccc3c(=O)[nH]2)c1,-29%,-26%
O=C(NCCN1CCC(n2c(=O)[nH]c3ccccc32)CC1)c1c(F)cccc1F,-16%,-9%
C/C(Cn1nnc2ccccc21)=N\NC(=O)c1cccc(Br)c1,-17%,-12%
O=C(N/N=C/C=C/c1ccco1)c1ccncc1,-3%,-19%
CCN(CC(=O)N1CCOCC1)S(=O)(=O)c1ccc(C)cc1,nt,-6%
CCCOc1ccc(/C=N/Nc2ccc(C(=O)O)cc2)c(OCCC)c1,-12%,-4%
CN(C(=O)c1cccc(NC(=O)Cc2ccc(NC(=O)C3CCN(C(=O)c4ccccc4)CC3)cc2)c1)C1CCCCC1,-6%,-20%
COc1ccccc1NC(=O)COC(=O)CCC1CCCC1,-25%,-17%
CCOC(=O)C1=C(CS(=O)(=O)c2cccc(C(F)(F)F)c2)NC(=O)NC1c1cccc(OC)c1 (stereo not drawn),-11%,-10%
Cc1ccc(N(CC(=O)N/N=C/c2cccs2)S(C)(=O)=O)cc1Cl,nt,-27%

# Some of the entries above in another layout.
Structure | Vaccinia mCherry | Vaccinia Venus
S=C(Nc1ccccc1)N1CCCCCC1 | -11% | -4%
COC(=O)c1ccc(C)c(NC(=O)c2c(-c3ccccc3)noc2C)c1 | -2% | -17%
C/C(C=O)=C/c1ccccc1 | i | -12%
CCN(CC(=O)NCc1cccs1)C(=O)c1cccc(S(=O)(=O)Nc2ccccc2Cl)c1 | i | -7%
COc1ccc(NC(=O)c2cc(C3CC3)on2)c(OC)c1 | i | -21%
c1coc(CNc2nc3sc4c(c3c3ncnn23)CCCC4)c1 | nt | -12%
Cc1ccc(C)c(C(=O)CSc2nc3ccccc3c(=O)[nH]2)c1 | -29% | -26%
O=C(NCCN1CCC(n2c(=O)[nH]c3ccccc32)CC1)c1c(F)cccc1F | -16% | -9%
C/C(Cn1nnc2ccccc21)=N\NC(=O)c1cccc(Br)c1 | -17% | -12%
O=C(N/N=C/C=C/c1ccco1)c1ccncc1 | -3% | -19%
CCN(CC(=O)N1CCOCC1)S(=O)(=O)c1ccc(C)cc1 | nt | -6%
CCCOc1ccc(/C=N/Nc2ccc(C(=O)O)cc2)c(OCCC)c1 | -12% | -4%
CN(C(=O)c1cccc(NC(=O)Cc2ccc(NC(=O)C3CCN(C(=O)c4ccccc4)CC3)cc2)c1)C1CCCCC1 | -6% | -20%
COc1ccccc1NC(=O)COC(=O)CCC1CCCC1 | -25% | -17%
CCOC(=O)C1=C(CS(=O)(=O)c2cccc(C(F)(F)F)c2)NC(=O)NC1c1cccc(OC)c1 (stereo not drawn) | -11% | -10%
Cc1ccc(N(CC(=O)N/N=C/c2cccs2)S(C)(=O)=O)cc1Cl | nt | -27%

# (list continues)
SMILES,Vaccinia mCherry,Vaccinia Venus
COc1ccc(-c2cc(-c3c(O)c(OC)c4occc4c3OC)[nH]n2)cc1OC,-6%,?
Cc1ccc2c(CC(=O)Nc3cccc(Cl)c3C)coc2c1,-12%,-13%
COc1ccc(/C=N/OC(=O)Nc2ccccc2OC)cc1,?,-6%
CSC(=Nc1ccccc1)c1c(O)n(C)c(=O)n(C)c1=O,-11%,-17%
COc1ccc(CN2CCNC(=O)C2CC(=O)NCCSc2nccn2C)cc1OC (stereo not drawn),i,-7%
COc1ccc(S(=O)(=O)N2CCCCCC2)cc1N,-6%,-11%
Cc1cccc(CN2CCN(CC(=O)NCCc3ccc(Cl)cc3)C2=O)c1,-2%,2%
N/C(=N\OC(=O)CCc1ccccc1)c1ccc(Br)cc1,-8%,-8%
CN1CCN(Cc2nc(-c3cccs3)no2)CC1c1ccccc1 (stereo not drawn),-18%,-7%
C/C(=N\NC(=O)c1ccc(C)cc1C)c1ccc(-n2ccnc2)cc1,i,-17%
COc1ccc(CCNCC(=O)Nc2ccc(OC(F)F)cc2)cc1,-12%,-6%
Cc1ccc(NC(=O)CCNC(=O)c2ccccc2Cl)nc1,0%,0%
COCCCNc1oc(-c2ccc(COc3ccc(Cl)cc3)o2)nc1C#N,-20%,-18%
COc1cc(OC)cc(N2C(=O)N(CC(=O)c3ccc(F)cc3)c3ccccc3S2(=O)=O)c1,-20%,-3%
CCC(=O)c1ccc(O)cc1,i,-10%
Cc1c(Cl)cccc1NC(=O)CNC(=O)Cc1n[nH]c(=O)c2ccccc12,i,-5%
COc1cccc(N2CCN(CC(=O)Nc3ccc(S(=O)(=O)N4CCCCCC4)cc3)CC2)c1,-13%,-21%
CCC(C)c1c(O)nc(SCC(=O)c2ccccc2)[nH]c1=O (stereo not drawn),-16%,-6%
Cc1ccc(C)c(OCCn2cc(/C=C(\C#N)C(=O)NCc3ccco3)c3ccccc32)c1,-15%,?
Cc1ccc(C)c(N2CC(C(=O)O)CC2=O)c1 (stereo not drawn),i,-9%
CSc1ccc(Cn2nnc(C(=O)NCc3ccccc3)c2N)cc1,-8%,-7%
COCCN1C(=O)c2[nH]nc(-c3cc(C)ccc3O)c2C1c1ccc(C(C)C)cc1 (stereo not drawn),-9%,-9%
COc1ccc(N2CCN(S(=O)(=O)CCNC(=O)c3ccco3)CC2)cc1,i,-15%
CC(=O)c1cccc(NC(=O)c2ccc(N(C)S(C)(=O)=O)cc2)c1,nt,?
C=CCOn1c(=O)c(-c2ccc(Br)cc2)[n+]([O-])c2ccccc21,-25%,-3%
O=c1c2ccccc2nc(-c2cccs2)n1-c1cccc2ccccc12,-6%,-9%
C[C@@H]1CN([C@@H](C)CO)S(=O)(=O)c2ccc(Br)cc2O[C@H]1CN(C)C(=O)c1cccc(F)c1,?,-20%
Cc1ccc([C@H]2N[C@]3(CCCN(Cc4ccco4)C3=O)[C@H]3C(=O)N(Cc4ccccc4)C(=O)[C@@H]23)cc1,-5%,-16%
c1ccc(NC2=NCCN2CC2CCCCCC2)cc1,-13%,-9%
CN(C)c1c(Cl)cc(/C=C/c2ccnc3ccccc23)cc1Br,-21%,-16%
CCOc1ccc(/C=C/C(=O)Nc2sc3c(c2C(=O)OC)C(C(=O)OC)CC3)cc1 (stereo not drawn),-7%[7.34 µM],-4%[7.34 µM]
COc1ccc(C(=O)Nc2cc3c4c(c2)CC(=O)N4CCC3)cc1,-11%,-9%
CCn1c(CC(=O)Nc2ccccc2)nnc1SCC(=O)N1CCOCC1,-14%,-6%
Cc1[nH]n(-c2ccc([N+](=O)[O-])cc2)c(=O)c1C=NCCc1c(C)[nH]c2ccccc12,?,?
Cc1ccccc1-n1c(SCc2cc(=O)n3ccccc3n2)nc2[nH]ncc2c1=O,?,-23%
COC(=O)c1ccc(/C=C(\C#N)c2nc3ccccc3s2)cc1,-14%,20%
COC(=O)CN1C(=O)CC(C)(C)S(=O)c2ccccc21 (stereo not drawn),-8%,0%
COc1ccc(C(=O)NC2(C(F)(F)F)C(=O)NC(C)=C2C#N)cc1 (stereo not drawn),11%,8%
CCCn1cnnc1CNC(=O)C1CCC(=O)N(CCCc2ccccc2)C1 (stereo not drawn),-20%,-12%
CCc1nc2ccc(C(=O)NCCc3ccccc3OC)cc2nc1CC,-8%,-10%
Cn1c2c(c(=O)c3ccccc31)CCCC2,i,-16%
CON(c1nc(Cl)nc(N(C)C)n1)S(=O)(=O)c1ccccc1Cl,nt,?
CCCCCOC(=O)Cn1c(=O)oc2ccc(C)cc21,i,-8%
COc1cccc(NC(=O)Cc2nnc(SCCOc3ccccc3)n2C)c1,nt,-27%
Cc1ccc(C(=O)Cn2c(C(=O)O)cc3ccccc32)cc1,i,-18%
NC(N)=NS(=O)(=O)c1ccc(NC(=S)NC(=O)c2ccc3c(c2)OCO3)cc1,-12%,-9%
CCCCN(C)C(=O)c1nc2ccccn2c1CN1CCN(c2ncccn2)CC1,i,-15%
O=C(CSc1nnc(CNc2ccc(F)cc2)n1CC1CCCO1)N1CCOCC1 (stereo not drawn),i,-5%

# One compound at a time, as listed above. Screens in order: Vaccinia mCherry	Vaccinia Venus
# `CON(c1nc(Cl)nc(N(C)C)n1)S(=O)(=O)c1ccccc1Cl` is entered as nt	?
# `Cc1ccc(C(=O)Cn2c(C(=O)O)cc3ccccc32)cc1` is entered as i	-18%

# Continued.
SMILES,Vaccinia mCherry,Vaccinia Venus
c1ccc(-n2nnnc2OCCOc2nnnn2-c2ccccc2)cc1,?,-8%
Cc1ccc(-n2c3c(cc(-c4nc(-c5ccc(Cl)cc5)cs4)c2=O)C(=O)CC(C)(C)C3)cc1C,-7%,-4%
Cc1ccc(CSc2nnc(-c3cccs3)n2C)cc1,-16%,-16%
COc1ccccc1/C=C/c1nc2ccccc2s1,14%,-10%
Cc1ccc(C)c(SCC(=O)NC2CCS(=O)(=O)C2)c1 (stereo not drawn),-9%,-2%
CC1(C)SCC2C(=O)N3C(CSC3(C)C)C(=O)N21 (stereo not drawn),-14%,-5%
Cc1nnc(NC(=O)CSc2nnc(-c3ccco3)n2C(C)C)s1,5%,1%
COc1ccccc1-c1nnc(SCC(=O)N2CCCC2)o1,33%[activator],6%
Cc1cccc(-n2c(O)c(C=Nc3ccc4c(c3)OCO4)c3ccccc3c2=O)n1,i,-6%
COc1ccc(NS(=O)(=O)c2cccc(C(=O)N/N=C/c3cn(-c4ccccc4)nc3-c3ccccc3)c2)cc1,i[7.34 µM],-14%[7.34 µM]

# Source: PubChem
